# D1 antagonist – human D1 dopamine receptor antagonism; P21728; HEK293 TREx D1 cells, calcium flux, dopamine EC80; stronger effect = lower value; activity change, negative = inhibition, % at 10 µM; actives 3.2% (n = 360,000); in the data active = activity change below about -30%; also: % is scaled to controls: 0 for no effect and ±100 for the full control effect
# Target sequence (P21728 whole entry, looked up): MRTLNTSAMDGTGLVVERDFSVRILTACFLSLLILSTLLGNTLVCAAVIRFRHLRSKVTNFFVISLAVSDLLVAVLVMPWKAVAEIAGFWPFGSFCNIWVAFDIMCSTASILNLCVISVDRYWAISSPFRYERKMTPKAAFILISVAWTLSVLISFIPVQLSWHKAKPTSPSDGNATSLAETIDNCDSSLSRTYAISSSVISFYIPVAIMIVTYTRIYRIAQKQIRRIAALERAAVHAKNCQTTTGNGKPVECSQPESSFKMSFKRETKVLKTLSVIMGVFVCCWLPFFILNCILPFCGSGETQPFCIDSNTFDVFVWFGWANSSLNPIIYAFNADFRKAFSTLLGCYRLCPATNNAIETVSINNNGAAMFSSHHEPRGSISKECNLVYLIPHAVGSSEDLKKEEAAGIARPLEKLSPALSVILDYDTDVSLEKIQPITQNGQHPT
#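 Kinetic fluorescence of a calcium dye serves as the read-out. D1-expressing Hek293 Trex cells, induced overnight at 30 C, are exposed to compound for 180 s before an EC80 dopamine addition, then read 180 s further.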
# RXFP1 antagonist – blocks the human relaxin receptor RXFP1 | HEK293-RXFP1, relaxin-stimulated cAMP HTRF, 30 min; stronger effect = lower value | activity change, negative = inhibition, % at 57.5 µM | actives 0.59% (n = 350,000);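 active = activity change of -60% or lower, but not beyond a set lower limit; inconclusive = change between -60% and -40%, or beyond the set limit; inactive = change above -40%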; also: % is scaled to controls: 0 for no effect and ±100 for the full control effect
# D2 potentiator – positively modulates the human D2 dopamine receptor allosterically | HEK293 T-REx D2, calcium flux, EC20 dopamine potentiation | actives 0.34% (n = 340,000) | P14416 | potentiation, % at 10 µM;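 active = potentiation over 3 SD above the plate norm, cut at about 30% in these data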; also: 0% is about no effect
# Target sequence (P14416 whole entry, looked up): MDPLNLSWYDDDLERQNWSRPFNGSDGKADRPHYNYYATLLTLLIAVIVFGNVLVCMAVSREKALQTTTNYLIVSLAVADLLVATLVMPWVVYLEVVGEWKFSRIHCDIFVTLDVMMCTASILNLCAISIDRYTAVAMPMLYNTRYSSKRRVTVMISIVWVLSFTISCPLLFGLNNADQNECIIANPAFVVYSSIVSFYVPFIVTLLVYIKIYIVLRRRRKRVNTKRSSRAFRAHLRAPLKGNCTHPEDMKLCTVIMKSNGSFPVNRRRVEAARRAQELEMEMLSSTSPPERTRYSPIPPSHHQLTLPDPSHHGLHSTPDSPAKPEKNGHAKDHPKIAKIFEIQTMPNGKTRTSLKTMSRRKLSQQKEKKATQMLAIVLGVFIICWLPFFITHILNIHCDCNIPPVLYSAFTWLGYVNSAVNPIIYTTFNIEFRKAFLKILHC
#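 Calcium flux readout, no-wash dye, 1 read/s. Inducible HEK293 Trex D2 line, overnight 30 C. Compound alone 180 s (agonist flags), then EC20 dopamine, another 180 s to score potentiation.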
# D2 agonist – D2 dopamine receptor (human) agonism; P14416; HEK293 T-REx D2 cells, calcium flux agonist mode; activation, % at 2 µM; actives 0.53% (n = 340,000);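 active = activation over 3 SD above normal in the single-dose calcium agonist read, cut at about 30% in these data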; also: 0% is about no effect
#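 Tetracycline-induced HEK293 Trex cells with D2 receptor force-coupled to calcium signaling, plated overnight at 30 C and loaded with no-wash calcium dye. Calcium flux read kinetically for 180 s after compound addition; responses flag agonists.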
# D2 antagonist – antagonists of human D2 dopamine receptor; inhibition, % at 10 µM; P14416; HEK293 TREx D2 cells, calcium flux, dopamine EC80; actives 2% (n = 340,000); in the data active = inhibition above about 30%; also: 0% is about no effect
#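 Read-out: kinetic calcium fluorescence (1 cycle/s) in inducible HEK293 T-REx D2 cells after an EC80 dopamine addition that followed 180 s compound preincubation. Loss of the dopamine response indicates antagonism.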
# D1 potentiator – potentiators of human D1 dopamine receptor. HEK293 TREx D1 cells, calcium flux, dopamine EC20 potentiation. actives 0.036% (n = 360,000). potentiation, % at 10 µM. P21728; in the data active = potentiation above about 30%; also: 0% is about no effect
# Starred values were filed as active, the others as inactive; ? = inconclusive; . = no result given; & = joins results of further samples; ! = repeats disagree. Only part of the results is shown; count on the stated rates, not on these rows.
# The opening 12 records, ahead of the listing:
# Codes: A = D1 antagonist; B = RXFP1 antagonist; C = D2 potentiator; D = D2 agonist; E = D2 antagonist; F = D1 potentiator
[1] CCN1CCN(CC(=O)Nc2nc3ccccc3s2)CC1
  A: 0 | B: -1 | C: 6 | D: 1.5 | E: 9 | F: -7

[2] O=C1OC(CN2CCOCC2)CN1N=Cc1ccc([N+](=O)[O-])o1 (stereo not given)
  A: -3 | B: . | C: -15 | D: 0.2 | E: -11 | F: -3

[3] Oc1cc(O)c2c(c1)OC(c1ccc(O)c(O)c1)C(O)C2 (stereo not given)
  A: 7 | B: . | C: 5 | D: 0.8 | E: -14 | F: -6

[4] CCC(NC(=O)C(C)NC)C(=O)N1CCCC1C(=O)NC1CCCc2ccccc21 (stereo not given)
  A: 13 | B: . | C: -2 | D: -0.4 | E: 5 | F: 0

[5] COc1ccc2cc(CCC(C)=O)ccc2c1
  A: -28 | B: -9 | C: -15 | D: -2.4 | E: -10 | F: -3

[6] O=C(CCN1CCN2CCCC2C1)N1c2ccccc2Sc2ccc(Cl)cc21 (stereo not given)
  A: -16 | B: -1&-4 | C: -19 | D: . | E: . | F: -8

[7] CC[C@]12CCCN3CCc4c(n(c5ccccc45)C(=O)C1)C32 (stereo not given in full)
  A: 4 | B: . | C: . | D: . | E: . | F: 5

[8] Cc1cccc(CCN2CCC(C(=O)c3ccc(NS(C)(=O)=O)cc3)CC2)n1
  A: -1 | B: . | C: -11 | D: -1.8 | E: 7 | F: -2

[9] Nc1nc2ccc(OC(F)(F)F)cc2s1
  A: -32*! | B: -3 | C: . | D: . | E: . | F: 2&1

[10] O=C(Nc1ccc(Cl)cc1)Nc1ccc(Cl)c(Cl)c1
  A: -34* | B: -16 | C: 4 | D: -0.9 | E: -9 | F: -9

[11] CCC(c1ccc(O)cc1)C(CC)c1ccc(O)cc1 (stereo not given)
  A: -28 | B: . | C: -2 | D: -1.0 | E: -4 | F: -1

[12] c1ccc2c(c1)-c1cccc3c1c-2cc1ccccc13
  A: . | B: . | C: -17 | D: 0.7 | E: 6 | F: 8

# The list itself, from the start:
# Codes: A = D1 antagonist; B = RXFP1 antagonist; C = D2 potentiator; D = D2 agonist; E = D2 antagonist; F = D1 potentiator
[1] CCN1CCN(CC(=O)Nc2nc3ccccc3s2)CC1
  A: 0 | B: -1 | C: 6 | D: 1.5 | E: 9 | F: -7

[2] O=C1OC(CN2CCOCC2)CN1N=Cc1ccc([N+](=O)[O-])o1 (stereo not given)
  A: -3 | B: . | C: -15 | D: 0.2 | E: -11 | F: -3

[3] Oc1cc(O)c2c(c1)OC(c1ccc(O)c(O)c1)C(O)C2 (stereo not given)
  A: 7 | B: . | C: 5 | D: 0.8 | E: -14 | F: -6

[4] CCC(NC(=O)C(C)NC)C(=O)N1CCCC1C(=O)NC1CCCc2ccccc21 (stereo not given)
  A: 13 | B: . | C: -2 | D: -0.4 | E: 5 | F: 0

[5] COc1ccc2cc(CCC(C)=O)ccc2c1
  A: -28 | B: -9 | C: -15 | D: -2.4 | E: -10 | F: -3

[6] O=C(CCN1CCN2CCCC2C1)N1c2ccccc2Sc2ccc(Cl)cc21 (stereo not given)
  A: -16 | B: -1&-4 | C: -19 | D: . | E: . | F: -8

[7] CC[C@]12CCCN3CCc4c(n(c5ccccc45)C(=O)C1)C32 (stereo not given in full)
  A: 4 | B: . | C: . | D: . | E: . | F: 5

[8] Cc1cccc(CCN2CCC(C(=O)c3ccc(NS(C)(=O)=O)cc3)CC2)n1
  A: -1 | B: . | C: -11 | D: -1.8 | E: 7 | F: -2

[9] Nc1nc2ccc(OC(F)(F)F)cc2s1
  A: -32*! | B: -3 | C: . | D: . | E: . | F: 2&1

[10] O=C(Nc1ccc(Cl)cc1)Nc1ccc(Cl)c(Cl)c1
  A: -34* | B: -16 | C: 4 | D: -0.9 | E: -9 | F: -9

# Taken from above.
# no. 5 in D2 antagonist → -10
# no. 8 in D2 agonist → -1.8

# The results go on:
# Codes: A = D1 antagonist; B = RXFP1 antagonist; C = D2 potentiator; D = D2 agonist; E = D2 antagonist; F = D1 potentiator
[11] CCC(c1ccc(O)cc1)C(CC)c1ccc(O)cc1 (stereo not given)
  A: -28 | B: . | C: -2 | D: -1.0 | E: -4 | F: -1

[12] c1ccc2c(c1)-c1cccc3c1c-2cc1ccccc13
  A: . | B: . | C: -17 | D: 0.7 | E: 6 | F: 8

[13] CC(=O)NCCc1c[nH]c2ccc(OCC(O)CNC(C)(C)C)cc12 (stereo not given)
  A: 4 | B: -28 | C: 7 | D: 0.6 | E: -2 | F: 4

[14] O=C1OC(CN2CCOCC2)CN1/N=C/c1ccc([N+](=O)[O-])o1 (stereo not given)
  A: . | B: 3 | C: . | D: . | E: . | F: .

[15] CC(Cc1ccccc1)(NC(=O)CN)c1ccccc1 (stereo not given)
  A: -8 | B: -18 | C: . | D: . | E: . | F: -2

[16] Cc1cscn1
  A: . | B: . | C: -11 | D: -0.2 | E: -5 | F: -4

[17] Cc1cn(C2C=CC(CO)O2)c(=O)[nH]c1=O (stereo not given)
  A: 0 | B: 1 | C: -4 | D: 0.7 | E: -5 | F: -2

[18] CC(=O)[C@@]1(O)CC[C@H]2[C@@H]3C[C@H](C)C4=CC(=O)CC[C@]4(C)[C@H]3CC[C@@]21C
  A: -5 | B: -30 | C: 5 | D: -0.9 | E: -15 | F: 0

[19] C#C[C@]1(O)CC[C@H]2[C@@H]3CCc4cc(OC5CCCC5)ccc4[C@H]3CC[C@@]21C
  A: 5 | B: 2 | C: -4 | D: 1.2 | E: -12 | F: -2

[20] CC[C@H]1CN2CCc3cc(OC)c(OC)cc3C2C[C@@H]1C[C@H]1NCCc2cc(OC)c(OC)cc21 (stereo not given in full)
  A: -8 | B: . | C: 7 | D: 0.4 | E: -14 | F: 0

[21] CC12CCC(=O)C=C1CCC1C2C(=O)CC2(C)C1CC[C@]2(O)C(=O)CO (stereo not given in full)
  A: 13 | B: 0 | C: 8 | D: -1.1 | E: 2 | F: -8

[22] NCC(=O)CCC(=O)O
  A: -7 | B: -14 | C: 2 | D: 0.6 | E: 5 | F: 6

[23] C1CCC2=NCCCN2CC1
  A: -19 | B: -17 | C: . | D: 3.1 | E: -8 | F: -8

[24] OC1CCCCC1
  A: . | B: . | C: -3 | D: 0.8 | E: -4 | F: -1

[25] CN(C)C(=O)Oc1ccc[n+](C)c1
  A: -6 | B: -14 | C: -7 | D: 0.7 | E: 15 | F: 4

[26] CC(=O)OCC(=O)[C@@]1(OC(C)=O)[C@@H](C)C[C@H]2[C@@H]3C[C@H](F)C4=CC(=O)C=C[C@]4(C)[C@@]3(F)[C@@H](O)C[C@@]21C
  A: -10 | B: -15 | C: 13 | D: 2.5 | E: 14 | F: -2

[27] NC(=NCCCCCCN=C(N)/N=C(\N)Nc1ccc(Cl)cc1)/N=C(\N)Nc1ccc(Cl)cc1
  A: -82* | B: 26 | C: -20&-14&-33 | D: 1.2&0.7&1.7 | E: 22&23&7 | F: -6&-5&-9

[28] CC[C@]12CCCN3CCc4c(n(c5ccccc45)C(=O)C1)[C@@H]32
  A: 40 | B: ? | C: 14 | D: 0.7 | E: 0 | F: 2

[29] Cc1cc(Nc2ccc(O)cc2)ccc1N
  A: . | B: . | C: 19 | D: -0.7 | E: 9 | F: 0

[30] CCc1cccc(N(C)C(N)=Nc2cccc3ccccc23)c1
  A: -21 | B: 15 | C: -6 | D: -0.9 | E: -12 | F: -6

[31] CC[C@H]1CN2CCc3cc(OC)c(OC)cc3[C@@H]2C[C@@H]1C[C@H]1NCCc2cc(OC)c(OC)cc21
  A: 5 | B: 22 | C: 3 | D: 1.7 | E: 15 | F: -4

[32] Cc1ccccc1C(=O)O
  A: . | B: . | C: 9 | D: -0.4 | E: -3 | F: -2

[33] On1nnc2ccccc21
  A: -16 | B: 6 | C: -2 | D: -0.8 | E: 8 | F: -11

[34] CC(=O)OCC(=O)[C@@]1(O)CCC2C3CCC4=CC(=O)CC[C@]4(C)C3[C@@H](O)C[C@@]21C (stereo not given in full)
  A: . | B: -9 | C: . | D: . | E: . | F: .

[35] CCCc1c(OCCCOc2ccc(OCC(=O)O)cc2)ccc(C(C)=O)c1O
  A: -8 | B: . | C: -3 | D: 0.3 | E: 26 | F: 8

[36] OC[C@@H](O)[C@@H](O)[C@H](O)[C@@H](O)CO
  A: -3 | B: . | C: 9 | D: 0.6 | E: -18 | F: -8

[37] CC(C(=O)O)c1ccc(-c2ccccc2)c(F)c1 (stereo not given)
  A: -2&15 | B: . | C: 3&1 | D: 2.4&0.5 | E: -8&0 | F: -1&12

[38] C=C1C[C@]23C[C@@]1(O)CC[C@H]2[C@@]12C=C[C@H](O)[C@@](C)(C(=O)O1)[C@H]2[C@@H]3C(=O)O
  A: 26 | B: . | C: -6&10 | D: 1.3&-0.3 | E: 4&-9 | F: 0&5

[39] Cc1ccccc1N1C(=O)c2cc(S(N)(=O)=O)c(Cl)cc2NC1C (stereo not given)
  A: 32 | B: 9 | C: 18 | D: -0.1 | E: -27 | F: 0

[40] CC(C)(C)NC[C@H](O)COc1nsnc1N1CCOCC1
  A: 3&24 | B: -7 | C: -4&-12 | D: -1.5&-0.5 | E: -9&-13 | F: -4&-1

[41] Cc1ccc(S(=O)(=O)NCCCCC(NC(=O)OC(C)(C)C)C(=O)O)cc1 (stereo not given) (tested in a mixture with another compound)
  A: 1 | B: -4 | C: -11 | D: 0.1 | E: 6 | F: 3

[42] OC[C@@H](O)[C@@H](O)[C@H](O)[C@H](O)CO
  A: 4 | B: 9 | C: 3 | D: 1.8 | E: 7 | F: -5

[43] CC12CCC(=O)C=C1CCC1C2C(=O)CC2(C)C1CCC2(O)C(=O)CO (stereo not given)
  A: 1 | B: -9 | C: 6 | D: 0.0 | E: 1 | F: 2

# Screening data (PubChem BioAssay)
